FGF22 binding – binders of recombinant human FGF22 by thermal shift; Q9HCT0; SYPRO orange fluorescence; percent of sucrose octasulfate shift, DMSO zero; calls only at 9.99 µM; actives 1.5% (n = 340,000);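 active = melting point raised past a set limit in the mean and every replicate; three in four hits are not shown here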
Target sequence (Q9HCT0 whole entry, looked up): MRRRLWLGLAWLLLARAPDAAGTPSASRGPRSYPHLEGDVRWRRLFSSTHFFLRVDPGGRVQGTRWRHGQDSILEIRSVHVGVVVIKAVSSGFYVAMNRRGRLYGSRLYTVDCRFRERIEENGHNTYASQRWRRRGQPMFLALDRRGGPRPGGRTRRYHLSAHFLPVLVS
UCH37 inh – human UCH37 deubiquitinating enzyme inhibition; inhibition, % (test concentration not listed); Q9Y5K5; AID 588478; actives 0.33% (n = 330,000); purified proteasome/UCH37, Ub-AMC cleavage fluorescence;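 active = mean of two replicates above 20%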;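 note: 0% = compound-free wells with enzyme and 100% = wells lacking proteasome; stock transfer was 100 nL into about 20 µL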
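system = Proteasome-associated human UCH37 deubiquitinase | amount = 0.15 nM proteasome as dispensed | medium = pH 7.4 Tris-HCl (50 mM) with ovalbumin, ATP-MgCl2, DTT | incubation = 30 min preincubation with enzyme, 25 min cleavage at room temperature | detection = AMC fluorescence 355/460 nm | read-out basis = percent inhibition | controls = no-proteasome and no-compound wells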
HNF4A DNA FP – change in binding of human HNF4 alpha to DNA; HNF4a-FITC DNA binding, fluorescence polarization, 1 h; activity change, % at 10 µM; actives 0.3% (n = 360,000); AID 1224865; in the data active = activity change above about 30%, passing the limit was not always enough;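 note: controls were the assay level and a saturating level of protein; the project sought stronger binding though the title names inhibitors; some compounds called inactive have numbers as strong as hits; positive values seem to mean higher polarization but the record does not say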
Target sequence (P41235 whole entry, looked up): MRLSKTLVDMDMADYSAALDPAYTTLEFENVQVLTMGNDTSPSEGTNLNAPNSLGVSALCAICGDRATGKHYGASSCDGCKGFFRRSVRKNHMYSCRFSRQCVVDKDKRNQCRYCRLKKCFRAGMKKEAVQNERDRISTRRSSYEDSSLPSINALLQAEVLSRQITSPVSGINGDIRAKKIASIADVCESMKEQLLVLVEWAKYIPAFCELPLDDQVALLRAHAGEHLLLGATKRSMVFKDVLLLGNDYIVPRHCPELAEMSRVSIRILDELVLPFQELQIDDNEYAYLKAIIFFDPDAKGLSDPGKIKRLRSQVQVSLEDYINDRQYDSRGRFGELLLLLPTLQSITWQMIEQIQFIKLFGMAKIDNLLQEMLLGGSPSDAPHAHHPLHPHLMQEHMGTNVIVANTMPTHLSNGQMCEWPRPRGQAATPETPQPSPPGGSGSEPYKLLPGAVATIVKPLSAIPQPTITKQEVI
LANA-H2A inh – blocks KSHV LANA binding to histone H2A/H2B. cell-free LANA-H2A/H2B peptide, fluorescence polarization. inhibition, % (test concentration not listed). actives 0.6% (n = 320,000); in the data active = inhibition mostly above about 10%, no sharp cut-off; inactive = mostly below about 6.7%;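 note: stock transfer was 7.5 nL into about 10 µL; 0% = median of vehicle wells and 100% = median of positive control wells; one replicate is shown; the record names a cut of 25% in any replicate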
Beta2AR agonist – activates human beta-2 adrenergic receptor causing internalization; P07550; Am2.2-beta2AR cells, FAP receptor internalization, flow cytometry; reference of the scale not given here; response, % (test concentration not listed); actives 0.43% (n = 340,000); AID 504454;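 active = response above a set limit, near 3 SD of response in nonfluorescent compounds, cut at about 42% in these data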;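 note: stock transfer was 100 nL into about 11 µL; a reference agonist was the positive control; negative values mostly stem from fluorescent compounds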
Target sequence (P07550 whole entry, looked up): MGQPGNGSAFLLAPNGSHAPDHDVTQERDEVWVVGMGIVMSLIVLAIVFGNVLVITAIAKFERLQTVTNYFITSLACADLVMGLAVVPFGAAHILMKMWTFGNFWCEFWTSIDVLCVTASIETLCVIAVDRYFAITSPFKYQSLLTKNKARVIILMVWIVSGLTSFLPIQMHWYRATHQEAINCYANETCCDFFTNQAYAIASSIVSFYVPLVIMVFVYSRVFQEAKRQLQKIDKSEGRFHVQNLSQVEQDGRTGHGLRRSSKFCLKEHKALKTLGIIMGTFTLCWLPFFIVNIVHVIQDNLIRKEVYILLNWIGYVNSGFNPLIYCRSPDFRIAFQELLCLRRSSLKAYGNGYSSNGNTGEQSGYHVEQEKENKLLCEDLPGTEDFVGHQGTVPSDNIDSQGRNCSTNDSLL
E coli growth – inhibitors of Escherichia coli growth; OD600, 23 h; hits give low values; actives 0.21% (n = 330,000); OD600 absorbance (concentration not given with the values);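 active = OD600 absorbance below the run mean of sample wells minus 3.6 SD, in any replicate, cut at about 0.56 in these data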;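 note: stock transfer was 300 nL into about 60 µL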
ALR inh – human ALR oxidase inhibition via reduced H2O2; P55789; purified ALR, DTT oxidation, H2O2 HRP-luminol luminescence; inhibition, % (test concentration not listed); actives 3.8% (n = 290,000);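 active = mean and each replicate at 75% or more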;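 note: stock transfer was 7.5 nL into about 7.5 µL; 0% = neutral wells and 100% = wells with inactivated enzyme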
* hit, by the source's call. This is a subset. The share of hits here may be higher or lower than overall.

Screening Cc1nc2nc(NC(=O)c3ccco3)[nH]n2c(=O)c1C returned FGF22 binding inactive, UCH37 inh 2.5, HNF4A DNA FP 0.2, LANA-H2A inh -5.0, Beta2AR agonist -8.2, E coli growth 0.706 and ALR inh 2.7.
Screening COc1cccc(NC(=O)CN(Cc2ccccc2)S(C)(=O)=O)c1 returned FGF22 binding inactive, UCH37 inh 5.2, HNF4A DNA FP -0.4, LANA-H2A inh -0.6, Beta2AR agonist 1.1, E coli growth 0.668 and ALR inh -2.7.
For COc1cccc(-c2nc(CS(=O)(=O)CC(=O)Nc3cc(F)ccc3F)c(C)o2)c1 the results were FGF22 binding inactive, UCH37 inh 2.8, HNF4A DNA FP 6.0, LANA-H2A inh -0.5, Beta2AR agonist -5.7, E coli growth 0.678 and ALR inh 2.0.
`N/C(=N\OC(=O)c1cccs1)c1cccc([N+](=O)[O-])c1` gave FGF22 binding inactive, HNF4A DNA FP -6.6, LANA-H2A inh 2.7, Beta2AR agonist -10.4 and ALR inh 46.9.
NC(=O)c1ccc(NC(=O)COC(=O)/C=C/c2ccc3c(c2)OCO3)cc1 was read as FGF22 binding inactive, UCH37 inh -23.6, HNF4A DNA FP -1.4, LANA-H2A inh -3.2, Beta2AR agonist 0.7, E coli growth 0.733 and ALR inh 0.1.
Screening Cn1nnnc1SCC(=O)Nc1ccc(Br)cc1Cl returned UCH37 inh 1.4, HNF4A DNA FP -0.5, LANA-H2A inh -2.2, Beta2AR agonist 4.2, E coli growth 0.711 and ALR inh -13.7.
CCC1=Nc2cc(C(=O)NCc3cccnc3)ccc2Sc2ccc(C)cc21 was read as FGF22 binding inactive, UCH37 inh 3.8, HNF4A DNA FP 3.6, LANA-H2A inh 2.4, Beta2AR agonist 24.9, E coli growth 0.673 and ALR inh -12.9.
COc1ccc(CNC(=O)c2cccc3c2C(=O)N(CC2CCCO2)C3)cc1 (centres undefined) was read as FGF22 binding inactive, UCH37 inh 0.7, HNF4A DNA FP -0.9, LANA-H2A inh 1.9, Beta2AR agonist -3.5, E coli growth 0.699 and ALR inh 88.2*.
COc1ccccc1CNC(=O)C(=O)NCC1OCCN1S(=O)(=O)c1ccc2c(c1)OCCO2 (centres undefined) was read as FGF22 binding inactive, UCH37 inh 1.8, HNF4A DNA FP 2.2, LANA-H2A inh 1.5, Beta2AR agonist -1.1, E coli growth 0.661 and ALR inh -0.8.
For Cc1ccc(NC(=O)N2C3CCCC2CC(NC(=O)C(C)(C)C)C3)cc1 (centres undefined) the results were FGF22 binding inactive, UCH37 inh 3.2, HNF4A DNA FP 1.6, LANA-H2A inh -1.2, Beta2AR agonist -2.2, E coli growth 0.686 and ALR inh -10.8.
CC(=C\c1ccco1)/C=C(\C#N)C(=O)NCCc1c[nH]c2ccccc12 was read as FGF22 binding inactive, UCH37 inh 3.4, HNF4A DNA FP 7.9, LANA-H2A inh -4.0, Beta2AR agonist -3.1, E coli growth 0.652 and ALR inh -2.0.
Screening Nc1ccc2nc(-c3ccc(-c4nc5ccc(N)cc5[nH]4)cc3)[nH]c2c1 returned FGF22 binding inactive, LANA-H2A inh -3.5 and ALR inh 98.6*.
For O=C(c1ccc(=O)[nH]c1)N(Cc1ccco1)C1(C(=O)NC2CCCCC2)CCCCC1 the results were UCH37 inh 4.6, HNF4A DNA FP -0.1, LANA-H2A inh 0.7, Beta2AR agonist 9.0, E coli growth 0.693 and ALR inh -3.6.
`C=Cc1ncc(OC)c2c1[nH]c1ccccc12` gave UCH37 inh -38.5, HNF4A DNA FP 0.4, LANA-H2A inh 3.0, Beta2AR agonist 17.6, E coli growth 0.49* and ALR inh 42.3.
`O=C(CN1C(=O)NC(Cc2c[nH]c3ccccc23)C1=O)Nc1ccc(Br)cc1F` (centres undefined) gave FGF22 binding active, UCH37 inh 1.9, HNF4A DNA FP 0.0, LANA-H2A inh -1.6, Beta2AR agonist -5.1, E coli growth 0.672 and ALR inh -0.8.
Screening Cc1ccc2c(c1)nnn2C1CCN(S(=O)(=O)c2ccc(C(=O)NC3CCCC3)cc2)CC1 returned UCH37 inh 3.2, HNF4A DNA FP -0.9, LANA-H2A inh 2.9, Beta2AR agonist -14.7 and E coli growth 0.722.
For CCOc1ccc2[nH]c3nc(SCC(=O)NCC4CCCO4)nnc3c2c1 (centres undefined) the results were FGF22 binding inactive, UCH37 inh 6.2, HNF4A DNA FP 0.0, LANA-H2A inh -8.0, Beta2AR agonist 9.2, E coli growth 0.701 and ALR inh -8.2.
`Cc1cc(Br)ccc1NC(=O)CNC(=O)Cn1ncc(Cl)c(Cl)c1=O` gave HNF4A DNA FP -1.8, LANA-H2A inh -1.8, Beta2AR agonist 37.0 and ALR inh -1.3.
Screening COc1cc(Cl)c(C)cc1NC(=O)CCNC(=O)c1ccco1 returned FGF22 binding inactive, UCH37 inh 3.1, HNF4A DNA FP 0.1, LANA-H2A inh 3.0, Beta2AR agonist -0.4 and E coli growth 0.7.
COc1ccccc1C(=O)CC(=O)c1ccccc1 was read as FGF22 binding inactive, UCH37 inh 4.0, HNF4A DNA FP 2.8, LANA-H2A inh 16.8*, Beta2AR agonist 3.4, E coli growth 0.655 and ALR inh 8.8.

Ordered by length of the SMILES (lowest first): part of the list above.
`C=Cc1ncc(OC)c2c1[nH]c1ccccc12` gave UCH37 inh -38.5, HNF4A DNA FP 0.4, LANA-H2A inh 3.0, Beta2AR agonist 17.6, E coli growth 0.49* and ALR inh 42.3.
Screening COc1cc(Cl)c(C)cc1NC(=O)CCNC(=O)c1ccco1 returned FGF22 binding inactive, UCH37 inh 3.1, HNF4A DNA FP 0.1, LANA-H2A inh 3.0, Beta2AR agonist -0.4 and E coli growth 0.7.
CCC1=Nc2cc(C(=O)NCc3cccnc3)ccc2Sc2ccc(C)cc21 was read as FGF22 binding inactive, UCH37 inh 3.8, HNF4A DNA FP 3.6, LANA-H2A inh 2.4, Beta2AR agonist 24.9, E coli growth 0.673 and ALR inh -12.9.

(further entries)
Screening Cc1nc(-c2ccc(Cl)cc2)sc1C(=O)NN returned FGF22 binding inactive, UCH37 inh 2.9, HNF4A DNA FP 0.8, LANA-H2A inh 1.5, Beta2AR agonist 3.1, E coli growth 0.662 and ALR inh -9.2.
`CC(Nc1cc(N2CCN(S(C)(=O)=O)CC2)ccc1[N+](=O)[O-])c1ccccc1` (centres undefined) gave UCH37 inh 7.6, HNF4A DNA FP 1.1, LANA-H2A inh -3.4, Beta2AR agonist 4.6, E coli growth 0.696 and ALR inh -40.8.
`CCC(=O)N1N=C(c2ccc(NS(=O)(=O)c3ccc(C)cc3)cc2)CC1c1ccco1` (centres undefined) gave FGF22 binding inactive, UCH37 inh 0.5, HNF4A DNA FP -3.5, LANA-H2A inh -3.0, Beta2AR agonist -0.6, E coli growth 0.693 and ALR inh -1.7.
Screening CCN(c1cccc2ccccc12)S(=O)(=O)c1cccs1 returned FGF22 binding inactive, UCH37 inh -1.6, HNF4A DNA FP 3.5, LANA-H2A inh 0.5, Beta2AR agonist 12.0 and E coli growth 0.705.
Screening COCC(C)NC(=O)c1cccc([N+](=O)[O-])c1 (centres undefined) returned FGF22 binding inactive, UCH37 inh 2.0, HNF4A DNA FP -2.1, LANA-H2A inh -1.7, Beta2AR agonist -5.2, E coli growth 0.645 and ALR inh -3.6.
Screening O=S(=O)(NC1CCCCCC1)c1ccc(Br)s1 returned UCH37 inh 5.5, HNF4A DNA FP -0.7, LANA-H2A inh 3.3, Beta2AR agonist 6.3, E coli growth 0.71 and ALR inh -4.8.
For Cc1ccc(C(=O)COC(=O)c2ccc3c(c2)C(=O)N(c2cccc4ncccc24)C3=O)cc1 the results were FGF22 binding inactive, UCH37 inh 1.7, HNF4A DNA FP 2.3, LANA-H2A inh -2.9, Beta2AR agonist 37.0, E coli growth 0.747 and ALR inh -2.6.
For CN1CC(=O)N(CC(=O)Nc2ccc(Cl)c(C(F)(F)F)c2)C1=O the results were UCH37 inh 0.2, HNF4A DNA FP -2.8, LANA-H2A inh 15.5, Beta2AR agonist -0.3, E coli growth 0.649 and ALR inh -2.8.
`CCCCOc1ccc(C(C)(O)CCN2CCOCC2)cc1` (centres undefined) gave UCH37 inh 2.1, HNF4A DNA FP 3.1, LANA-H2A inh -5.2, Beta2AR agonist -8.2, E coli growth 0.78 and ALR inh -4.9.
`Cc1cc(C(=O)NNC(=O)c2cccc(N(C)C)c2)c(C)o1` gave FGF22 binding inactive, UCH37 inh 2.7, HNF4A DNA FP 5.6, LANA-H2A inh -0.8, Beta2AR agonist 0.4, E coli growth 0.688 and ALR inh -2.4.
`CC1=C(C(=O)OC(C)C)C(C)C(C(=O)OC(C)C)=C(C)N1` gave UCH37 inh -41.5, HNF4A DNA FP -4.8, LANA-H2A inh 0.1, Beta2AR agonist -6.1, E coli growth 0.666 and ALR inh 1.2.
`C=CCN=C1NN=C(c2ccc3c(c2)OCCO3)CS1` gave FGF22 binding inactive, UCH37 inh 3.4, HNF4A DNA FP 7.3, LANA-H2A inh 3.9, Beta2AR agonist 13.4, E coli growth 0.709 and ALR inh -14.8.
Screening CCN(CC)CCCN1C=C2C(=O)C(C)(OC(=O)C3CCCC3)C(=O)C(c3ccccc3)=C2C=C1CCCC(=O)OC (centres undefined) returned FGF22 binding inactive, UCH37 inh 2.4, HNF4A DNA FP -11.2, LANA-H2A inh 2.3, Beta2AR agonist 0.7 and E coli growth 0.673.
For CN1CCCN(S(=O)(=O)c2ccc3c(c2)OCCO3)CC1 the results were UCH37 inh 6.7, HNF4A DNA FP -0.6, LANA-H2A inh 5.0, Beta2AR agonist -3.1, E coli growth 0.682 and ALR inh 0.2.
For COc1ccc(NC(=O)Cc2c(C)n(C(=O)c3ccc(Cl)cc3)c3ccc(OC)cc23)cc1 the results were UCH37 inh 2.2, HNF4A DNA FP 3.5, LANA-H2A inh -4.9, Beta2AR agonist -7.5, E coli growth 0.748 and ALR inh -2.2.
CC(=O)c1ccc(N=Nc2ccc(N(C)C)cc2)cc1 was read as FGF22 binding inactive, UCH37 inh 0.5, HNF4A DNA FP 0.0, LANA-H2A inh -0.1, Beta2AR agonist 5.2, E coli growth 0.756 and ALR inh 9.7.
`O=C(NCc1ccc2c(c1)OCO2)C1CC(=O)N(CCc2ccc(Cl)cc2)C1` (centres undefined) gave FGF22 binding inactive, UCH37 inh 2.4, HNF4A DNA FP 1.7, LANA-H2A inh -2.6, Beta2AR agonist -2.2, E coli growth 0.697 and ALR inh -0.4.
For CS(=O)(=O)c1nc(S(=O)(=O)c2ccc(Cl)cc2)c(N2CCC(O)CC2)s1 the results were FGF22 binding inactive, UCH37 inh 6.4, HNF4A DNA FP 1.2, LANA-H2A inh 7.6, Beta2AR agonist -17.8, E coli growth 0.709 and ALR inh -2.3.
Screening COc1cc(/C=N/n2c(SC)nnc(C(C)(C)C)c2=O)ccc1O returned HNF4A DNA FP 1.6, LANA-H2A inh -13.8, Beta2AR agonist -3.2 and ALR inh 62.1.
`CCC(NC(=S)NCc1ccc(F)cc1)c1ccc(C)cc1` (centres undefined) gave FGF22 binding inactive, UCH37 inh 0.4, HNF4A DNA FP 1.7, LANA-H2A inh 3.4, Beta2AR agonist -3.5, E coli growth 0.701 and ALR inh 0.9.
For CCC(C)(C)n1nnnc1CN1CCC(c2nc3ccc(C)cc3[nH]2)CC1 the results were UCH37 inh -2.6, HNF4A DNA FP 7.5, LANA-H2A inh 1.2, Beta2AR agonist -5.2, E coli growth 0.608 and ALR inh -2.6.
Cc1c(CCC(C)C)c(-n2ccnc2C)n2c(nc3ccccc32)c1C#N was read as UCH37 inh -11.2, HNF4A DNA FP 1.9, LANA-H2A inh 2.9, Beta2AR agonist 4.7, E coli growth 0.685 and ALR inh -23.8.
Screening Cc1ccc(-c2nnn(CC(=O)N3CCCc4ccccc43)n2)cc1 returned UCH37 inh 4.6, HNF4A DNA FP -2.2, LANA-H2A inh 2.9, Beta2AR agonist -2.2 and E coli growth 0.675.
For Cc1ccc(C(=O)NNC(=O)c2cccc(Br)c2)cc1 the results were FGF22 binding inactive, HNF4A DNA FP -3.5, LANA-H2A inh -2.1, Beta2AR agonist 0.0 and ALR inh -3.1.

Assay outcomes as filed in PubChem.
